Beta cell apopt – inhibitors of cytokine-induced beta cell apoptosis, primary screen, luminescence. INS-1E cytokine-induced death, ATP luminescence, 48 h; percent of positive-control rescue, neutral wells zero. protection from apoptosis, % (test concentration not listed). 300,000 compounds, 0.8% hits;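 active means all replicates at 75% or more, or half of them and the mean; inconclusive means half reach 75% but not the mean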;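 further: 0% = cytokine-treated negative control wells and 100% = positive control rescue; higher means more ATP so stronger rescue from cytokine killing; wells of about 40 µL received 100 nL stock; the first replicate is given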
AF4-AF9 inh – inhibitors of AF4 peptide binding to AF9, primary screen, biochemical, AlphaScreen, biotin-AF4 peptide, FLAG-AF9, single point; 350,000 compounds, 0.47% hits; inhibition, % at 10 µM; AID 651704, 2012; Protein AF-9 (Homo sapiens), P42568;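 active means every replicate reaching a set inhibition limit, whatever the replicate mean, cut at about 25% in these data; inconclusive means mean inhibition reaches that limit but some replicates miss it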;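 further: 0% = plate neutral control median and 100% = total signal loss; the record names both 10 and 1 µM as test concentration; the first replicate is given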
Calb FLC – C. albicans growth inhibition with fluconazole, primary screen, CaCi-2 strain, Alamar Blue fluorescence | C. albicans CaCi-2 (fluconazole-resistant clinical isolate) + fluconazole, 48 h | growth inhibition, % (concentration not given with the values) | 300,000 compounds, 0.57% hits;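 active means most replicates above 75%; inconclusive means exactly half above 75%; inactive means most below 75%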;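 further: all wells also contain fluconazole at 8 µg/ml as a sub-toxic cotreatment; 0% = median of DMSO wells and 100% = median of geldanamycin control wells; wells of about 8 µL received 7.5 nL stock; the first replicate is given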
RanGTP-Imp inh – inhibitors of RanGTP-importin-beta interaction, primary screen, biochemical, FRET, CFP-Ran, YFP-importin-beta, homogeneous. Ran GTPase (GTP-bound) - importin-beta complex. 300,000 compounds, 1.1% hits. cell-free CFP-Ran/YFP-importin-beta FRET ratio. inhibition, % (no concentration beside the values). AID 2216, 2009;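 active means most replicates above 15%; inconclusive means exactly half above 15%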;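 further: 0% = DMSO wells and 100% = Ran loaded with GDP instead of GTP; wells of about 40 µL received 100 nL stock; the first replicate is given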
T cruzi inh – inhibitors of intracellular T. cruzi growth, primary screen, luminescence, NIH3T3 host cells; 300,000 compounds, 1.4% hits; T. cruzi beta-gal in NIH3T3, 90 h; inhibition, % (test concentration not listed);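 active means mean inhibition across valid replicates above about 55%, limit read from the data; inconclusive means mean below that limit but half or more replicates reach it; inactive means mean below it, under half of replicates reach it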;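 further: signal also drops with host cell toxicity which is not excluded here; 0% = plate median of DMSO wells and 100% = zero luminescence signal; higher percent means less beta-gal luminescence so fewer parasites; stock transfer was 50 nL into about 50 µL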
Vif A3G – inhibitors of Vif binding to APOBEC3G peptide, primary screen, biochemical, TR-FRET, GST-Vif 1-94, biotin-A3G peptide, dose response retest (AID 1117319). Virion infectivity factor (Human immunodeficiency virus type 1 group M subtype B (isolate …. TR-FRET GST-Vif / biotin-A3G peptide binding; higher % means a stronger effect; test concentration not given here; strong numbers were not always called active. inhibition, %; hits with a dose series show IC50 in µM. 260,000 compounds, 0.57% hits;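 active means above the screen mean plus three standard deviations and confirmed in dose response; inconclusive means results disagree or hit not tested in dose response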;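 further: Vif residues 1-94 fused to GST binding biotinylated APOBEC3G peptide 110-148; 0% = full assay without inhibitor and 100% = GST in place of GST-Vif; retest series ran down from 100 µM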
LANA-H2A inh – blockers of LANA interaction with H2A/H2B – biochemical, FP readout, HTS, primary screen. 320,000 compounds, 0.6% hits. Protein LANA1 (Human herpesvirus 8 type P (isolate GK18)), Q9QR71. inhibition, % (test concentration not listed). cell-free LANA-H2A/H2B peptide, fluorescence polarization; in the data active means inhibition mostly above about 10%, no sharp cut-off; inactive means mostly below about 6.7%;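 further: stock transfer was 7.5 nL into about 10 µL; 0% = median of vehicle wells and 100% = median of positive control wells; one replicate is shown; the record names a cut of 25% in any replicate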
Target sequence (Q9QR71 whole entry, looked up): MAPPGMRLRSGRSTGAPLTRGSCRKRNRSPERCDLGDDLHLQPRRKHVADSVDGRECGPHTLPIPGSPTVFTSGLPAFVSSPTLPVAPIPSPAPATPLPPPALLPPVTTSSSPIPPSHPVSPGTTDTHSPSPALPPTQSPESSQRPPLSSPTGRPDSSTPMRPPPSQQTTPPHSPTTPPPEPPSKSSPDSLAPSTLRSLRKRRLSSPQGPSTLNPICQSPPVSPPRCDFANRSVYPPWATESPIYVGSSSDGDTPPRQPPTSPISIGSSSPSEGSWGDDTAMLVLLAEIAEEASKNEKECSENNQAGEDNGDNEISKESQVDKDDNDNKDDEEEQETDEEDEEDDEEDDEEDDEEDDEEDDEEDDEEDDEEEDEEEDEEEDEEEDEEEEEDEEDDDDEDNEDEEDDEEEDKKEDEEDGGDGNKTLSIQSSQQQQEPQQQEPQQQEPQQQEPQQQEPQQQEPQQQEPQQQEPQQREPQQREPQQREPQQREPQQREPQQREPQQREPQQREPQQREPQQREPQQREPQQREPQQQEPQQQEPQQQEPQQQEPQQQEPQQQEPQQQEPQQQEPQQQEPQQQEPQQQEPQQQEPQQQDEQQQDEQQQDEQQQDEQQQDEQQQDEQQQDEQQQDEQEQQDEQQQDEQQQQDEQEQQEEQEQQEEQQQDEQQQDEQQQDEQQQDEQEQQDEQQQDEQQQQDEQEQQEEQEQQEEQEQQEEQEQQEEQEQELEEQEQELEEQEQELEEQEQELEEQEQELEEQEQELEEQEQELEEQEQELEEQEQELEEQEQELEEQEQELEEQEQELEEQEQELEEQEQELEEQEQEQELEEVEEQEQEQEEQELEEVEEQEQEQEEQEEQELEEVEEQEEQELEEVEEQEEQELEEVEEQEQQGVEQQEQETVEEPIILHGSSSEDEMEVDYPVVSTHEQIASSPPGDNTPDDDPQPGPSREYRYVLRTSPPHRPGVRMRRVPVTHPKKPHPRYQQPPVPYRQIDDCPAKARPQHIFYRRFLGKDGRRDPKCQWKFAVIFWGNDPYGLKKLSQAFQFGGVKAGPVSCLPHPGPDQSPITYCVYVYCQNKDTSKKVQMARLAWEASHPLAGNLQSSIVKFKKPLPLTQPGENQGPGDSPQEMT
A1 inh – caspase 3/7 activation in MEF A1-2A-BIM cells, primary screen, A1 inhibitor project, cell-based, luminescence, HTS | 330,000 compounds, 0.066% hits | caspase activation, % (test concentration not listed) | Caspase-Glo 3/7 luminescence, 3 h; percent of clofoctol response, vehicle zero;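 active means over half of replicate activation scores above 10%, or exactly half above 10 with the replicate mean above 10; inconclusive means replicate mean below 10 yet half the replicates above 10; inactive means over half of replicates below 10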;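 further: wells of about 30 µL received 50 nL stock; many hits fall short of the cut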
* hit, by the source's call; ? = inconclusive; · = no result given; & = joins results of further samples.

SMILES	Beta cell apopt	AF4-AF9 inh	Calb FLC	RanGTP-Imp inh	T cruzi inh	Vif A3G	LANA-H2A inh	A1 inh
COc1ccc(C2OC(=O)CC2C(=O)NCc2ccc(C)cc2)cc1OC (stereo not drawn)	-2	-2.3	0	-0.6	-13	21%	0.2	-1.1
Cc1ccc(-c2nc3c(c(SCC(=O)N4CCOCC4)n2)Cc2c(CO)cnc(C)c2O3)cc1	2	2.9	-18	0.7	2	·	2.5	0.1
COc1ccc(CCNC(=O)c2cc(C3CC3)nc3c2cnn3C(C)C)cc1	10	-0.5	·	·	·	0%	2.2	-0.1
CC(C)(C)c1ccccc1N=Cc1ccc2ccccc2n1	13	·	0	-3.1	-14	-2%	-6.0	0.3
Cc1cccc(C(C(=O)NC2CCCC2)N(Cc2cccnc2)C(=O)c2csnn2)c1 (stereo not drawn)	-9	0.5	-1	-1.3	8	-2%	-0.6	-0.1
COC1CCCN(C(=O)c2ccc3oc(Cc4ccc(Cl)cc4)nc3c2)C1 (stereo not drawn)	1	-4.9	-7	-0.6	8	-2%	1.6	-0.1
Cc1cc(C(C)(C)C)nc2[nH]n(-c3ccccc3)c(=O)c12	·	·	-4	-3.1	8	-3%	1.6	-2.3
COc1ccc(CCNC(=O)c2ccc(Cl)cc2)cc1	5	·	6	0.1	-6	-11%	5.6	0.4
Cc1cc(-c2nnc(CCC(=O)NC(C)c3cccc4ccccc34)o2)no1 (stereo not drawn)	-4	-0.7	7	5.0	-10	·	-1.9	0.2
Cc1ccc(CNC(=O)CSc2nnc(CNC(=O)c3ccccc3)o2)cc1	-2	-1.7	-11	5.3	-1	-1%	-0.6	1.0
COc1ccc(CCC(=O)OCc2csc(CC(=O)Nc3ccc(C)cc3)n2)cc1OC	-7	-5.0	·	·	·	·	0.6	0.0
CCCCN1C(=O)c2ccc(C(=O)OCC(=O)NCCc3ccc(S(N)(=O)=O)cc3)cc2C1=O	-4	0.4	·	·	·	-8%	-2.8	-0.2
COCCCNC(=O)c1ccc2c(=O)n(Cc3ccc(Cl)cc3)c(=S)[nH]c2c1	2	1.2	2	-0.5	1	·	5.1	0.6
Cn1c(=O)c2c(nc(Sc3ncnn3CC(=O)NC3CCCCC3)n2C)n(C)c1=O	1	1.1	-1	1.6	-11	·	3.1	1.1
C[C@@H]1NC(=O)N[C@@H]1CCCCCC(=O)O	0	90*	·	0.3	-4	·	6.9	0.1
C/C(=N\NC(=O)C1(C)NC(C)(C)Cc2ccccc21)c1ccccc1 (stereo not drawn)	3	1.8	-3	?	-9	·	-1.5	1.0
CCOc1ccc(C(CC(=O)O)NC(=O)c2ccco2)cc1 (stereo not drawn)	-4	·	-7	3.6	-11	-8%	3.8	0.7
CC(=O)c1ccc(NC(=O)C2CC(=O)Nc3nc4ccccc4n32)cc1 (stereo not drawn)	-3	-7.0	-2	3.1	-4	12%	-3.9	1.6
CCN(CC)CC(=O)c1ccc(-c2ccccc2)cc1	-1	·	20	-1.4	-7	9%	-4.3	0.9
Cc1cc(NC(=O)CCC(=O)N(CC(=O)NC2CCCC2)c2ccc(F)c(Cl)c2)no1	-7	-0.3	24	-0.8	7	·	-1.4	0.4
CC1CCN(CCCNC(=O)c2cc3c(s2)-c2ccccc2OC3)CC1	2	5.1	2	-0.6	14	·	-1.2	0.1
CC(OC(=O)CCN=C1NS(=O)(=O)c2ccccc21)C(=O)Nc1ccc(F)c(F)c1F (stereo not drawn)	-5	-2.3	-2	1.8	5	3%	-0.9	0.3
Cc1ccc(Cn2c(=N)c(C(=O)NCCN3CCOCC3)cc3c(=O)n4ccccc4nc32)cc1	-8	4.5	0	-1.3	8	9%	1.2	-0.3
CC(C)(CO)NCc1ccc(Br)cc1	-1	-0.4	-6	-4.6	1	15%	-20	-0.2
COc1ccc(/C=C/C(=O)CCC(=O)O)cc1	-2	-3.3	-2	5.5	-2	-3%	8.1	-1.6
CCCCSC(=S)NC1CCS(=O)(=O)C1 (stereo not drawn)	-21	-6.3	8	2.5	4	-3%	1.0	0.0
Cc1ccn2cc(-c3ccc(O)c(O)c3)nc2c1	2	10	·	0.7	-11	·	-0.2	-6.0
COc1ccc(OC)c(S(=O)(=O)n2nnc3ccccc32)c1	-7	·	3	0.4	13	3%	3.9	0.1
O=C(CNS(=O)(=O)c1ccccc1)Nc1ccc2c(c1)OCO2	-2	-1.2	-3	1.4	-11	6%	2.0	0.9
CCOc1ccccc1N(C(=O)c1ccco1)C(C(=O)NC1CCCC1)c1cccnc1 (stereo not drawn)	-6	·	·	?	-4	8%	-6.5	0.1
c1ccc(CCn2nnnc2CN2CCc3ccccc32)cc1	1	·	·	?	13	-26%	-0.3	-0.4
CC1(C)Oc2ccc(C(=O)NC3CCCC3)cc2N(CC(=O)NC2CCCC2)C1=O	·	·	-4	3.9	5	63%	-4.4	0.8
COC(=O)c1ccc(-n2c(C)cc(C(=O)COC(=O)CC3Sc4ccccc4NC3=O)c2C)cc1 (stereo not drawn)	1	2.8	7	-1.8	-10	7%	-0.1	0.7
O=C1c2ccccc2C(=O)c2[nH]cnc21	20	-0.9	33	1.8	2	8%	2.0	0.6
CCN(CC)S(=O)(=O)c1cccc(C(=O)N[C@H](C(=O)NCc2ccc(Cl)cc2)C(C)C)c1	-2	·	-5	1.4	6	0%	-2.4	1.7
CCN(CCCNC(=O)CN(C)S(=O)(=O)c1ccc2c(c1)CCC(=O)N2)c1cccc(C)c1	7	·	?	-0.9	8	12%&-1%	3.1	1.3
C/C(=N\N1CCN(Cc2ccc(Cl)cc2)CC1)c1ccc([N+](=O)[O-])cc1	4	12	-3	-5.0	30	-8%	-9.0	0.0
CCOc1cc2[nH]c(=O)n(CCC(=O)N3CCN(c4ccccc4OC)CC3)c(=O)c2cc1OCC	-11	·	9	1.7	-2	13%	0.0	0.1
C=CCc1cccc(CNc2c(C)cc(C)cc2C)c1O	-4	-1.2	-16	·	1	4%	-3.2	-0.1
Fc1cccc(Cc2noc(CN3CCSCC3)n2)c1	-5	-4.9	-9	-0.1	-6	7%	-0.2	1.9
Cc1cc(C(=O)CN2C(=O)NC3(CCCc4ccccc43)C2=O)c(C)n1C (stereo not drawn)	-6	·	·	·	·	2%	1.7	0.1
COc1ccc(S(=O)(=O)N(n2c(C)nnc2-n2nc(C)cc2C)S(=O)(=O)c2ccc(OC)cc2)cc1	-3	·	-1	1.0	1	13%	0.4	-0.9
Cc1ccccc1CN(C)CCS(=O)(=O)c1cc(Cl)ccc1Cl	-13	-1.7	-1	2.6	-11	-1%	0.2	0.6
Cn1cc(S(=O)(=O)N2CCN(c3ccc(F)cc3)CC2)c(=O)n(C)c1=O	0	7.4	0	-3.8	-14	-2%	-2.2	0.8
COc1cccc(OCC(=O)NC2CCCCC2)c1	-1	-16	-11	4.9	10	2%	0.8	0.2
NC(=O)c1ccc(NC(=O)COc2coc(CN3CCc4ccccc4C3)cc2=O)cc1	3	3.3	-4	0.9	-2	·	-1.9	0.8
CCc1[nH]c(=O)c(C#N)c2c1COC(C)(C)C2	-8	·	16	-1.0	-6	7%	-2.5	-0.2
CNC(=S)N/N=C/c1cc(Br)cc(Br)c1O	2	·	?	1.7	-13	·	-5.0	-2.2
O=c1cc2oc3cc(O)c(O)cc3c(-c3ccccc3[N+](=O)[O-])c-2cc1O	37	2.8	88*	18*	-27	·	-0.8	-1.3
O=[N+]([O-])c1cccc(CN2CCN(S(=O)(=O)Cc3ccccc3)CC2)c1	-2	-0.4	?	-2.0	19	·	-0.4	1.0
CCN(CC(=O)NCc1cccs1)c1ccc(S(=O)(=O)N2CCOCC2)cn1	0	·	-13	-1.5	-5	-1%	-4.4	-0.9
CCCCN(Cc1cc2cc(OC)ccc2[nH]c1=O)C(=O)c1ccccn1	-8	·	-6	-0.3	1	2%	4.5	0.9
COCCNC(=O)C1CCN(C(=O)c2cc3sccc3n2Cc2ccc(F)cc2)CC1	15	-2.7	-10	4.4	-17	4%	-6.7	-0.2
O=[N+]([O-])c1ccc(-n2nnnc2CN2CCCCC2)cc1	-9	-6.0	-7	2.6	-7	-5%	-2.9	0.1
CCCC(=O)C1=C(O)C(C(=O)OC)C(C)(C)CC1=NCc1ccccc1 (stereo not drawn)	-4	1.3	15	-6.0	11	·	2.3	0.2
Cc1cccc(-n2ncc3c2CCCC3NC(=O)CCc2ccncc2)c1C (stereo not drawn)	8	0.3	0	1.2	-17	·	3.3	-0.6
COc1ccc(C(=O)NCCCCNC(=O)c2ccc(OC)c(OC)c2)cc1OC	0	1.8	-1	-1.5	-8	·	-0.2	0.3
O=C(Cc1ncc(C(F)(F)F)cc1Cl)NCCc1ccccn1	-5	-2.4	-9	-0.1	-8	7%	-2.9	-0.1

A run of entries taken from the entries so far, as a working copy:
SMILES	Beta cell apopt	AF4-AF9 inh	Calb FLC	RanGTP-Imp inh	T cruzi inh	Vif A3G	LANA-H2A inh	A1 inh
O=[N+]([O-])c1cccc(CN2CCN(S(=O)(=O)Cc3ccccc3)CC2)c1	-2	-0.4	?	-2.0	19	·	-0.4	1.0
CCN(CC(=O)NCc1cccs1)c1ccc(S(=O)(=O)N2CCOCC2)cn1	0	·	-13	-1.5	-5	-1%	-4.4	-0.9
CCCCN(Cc1cc2cc(OC)ccc2[nH]c1=O)C(=O)c1ccccn1	-8	·	-6	-0.3	1	2%	4.5	0.9
COCCNC(=O)C1CCN(C(=O)c2cc3sccc3n2Cc2ccc(F)cc2)CC1	15	-2.7	-10	4.4	-17	4%	-6.7	-0.2
O=[N+]([O-])c1ccc(-n2nnnc2CN2CCCCC2)cc1	-9	-6.0	-7	2.6	-7	-5%	-2.9	0.1
CCCC(=O)C1=C(O)C(C(=O)OC)C(C)(C)CC1=NCc1ccccc1 (stereo not drawn)	-4	1.3	15	-6.0	11	·	2.3	0.2
Cc1cccc(-n2ncc3c2CCCC3NC(=O)CCc2ccncc2)c1C (stereo not drawn)	8	0.3	0	1.2	-17	·	3.3	-0.6
COc1ccc(C(=O)NCCCCNC(=O)c2ccc(OC)c(OC)c2)cc1OC	0	1.8	-1	-1.5	-8	·	-0.2	0.3
O=C(Cc1ncc(C(F)(F)F)cc1Cl)NCCc1ccccn1	-5	-2.4	-9	-0.1	-8	7%	-2.9	-0.1

High-throughput results deposited in PubChem BioAssay by several laboratories.
